T cruzi repl – T. cruzi replication inhibition; inhibition, % (no concentration beside the values); hit rate 1.4% among 300,000; AID 1885; T. cruzi beta-gal in NIH3T3, luminescence, 90 h;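 active = mean inhibition across valid replicates above about 55%, limit read from the data; inconclusive = mean below that limit but half or more replicates reach it; inactive = mean below it, under half of replicates reach it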;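 also: signal also drops with host cell toxicity which is not excluded here; 0% = plate median of DMSO wells and 100% = zero luminescence signal; higher percent means less beta-gal luminescence so fewer parasites; stock transfer was 50 nL into about 50 µL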
Beta apoptosis – blocks beta cell apoptosis; hit rate 0.8% among 300,000; protection from apoptosis, % (concentration not given with the values); INS-1E cytokine-induced death, ATP luminescence, 48 h; percent of positive-control rescue, neutral wells zero;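 active = all replicates at 75% or more, or half of them and the mean; inconclusive = half reach 75% but not the mean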;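 also: 0% = cytokine-treated negative control wells and 100% = positive control rescue; higher means more ATP so stronger rescue from cytokine killing; wells of about 40 µL received 100 nL stock; the first replicate is given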
Ecoli rRNA inh – inhibitors of bacterial rRNA selective over humanized ribosomes. hit rate 1.6% among 350,000. GFP signal change (wild-type ribosome), % (concentration not given with the values). E. coli WT GFP vs humanized-ribosome RFP mutants, fluorescence, 24 h; active compounds read low; DMSO median 0, no signal -100;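 active = significant combined selectivity score with lowered wild-type GFP, culture density cut under 30%, mutant RFP and density less affected; inactive = any of these conditions unmet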; also: one replicate is shown; some compounds called inactive have numbers as strong as hits
MLL AF4-AF9 inh – blocks AF4 peptide binding to human AF9; inhibition, % at 10 µM; hit rate 0.47% among 350,000; AlphaScreen, biotin-AF4 peptide binding to FLAG-AF9; P42568;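 active = every replicate reaching a set inhibition limit, whatever the replicate mean, cut at about 25% in these data; inconclusive = mean inhibition reaches that limit but some replicates miss it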;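 also: 0% = plate neutral control median and 100% = total signal loss; the record names both 10 and 1 µM as test concentration; the first replicate is given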
Target sequence (P42568 whole entry, looked up): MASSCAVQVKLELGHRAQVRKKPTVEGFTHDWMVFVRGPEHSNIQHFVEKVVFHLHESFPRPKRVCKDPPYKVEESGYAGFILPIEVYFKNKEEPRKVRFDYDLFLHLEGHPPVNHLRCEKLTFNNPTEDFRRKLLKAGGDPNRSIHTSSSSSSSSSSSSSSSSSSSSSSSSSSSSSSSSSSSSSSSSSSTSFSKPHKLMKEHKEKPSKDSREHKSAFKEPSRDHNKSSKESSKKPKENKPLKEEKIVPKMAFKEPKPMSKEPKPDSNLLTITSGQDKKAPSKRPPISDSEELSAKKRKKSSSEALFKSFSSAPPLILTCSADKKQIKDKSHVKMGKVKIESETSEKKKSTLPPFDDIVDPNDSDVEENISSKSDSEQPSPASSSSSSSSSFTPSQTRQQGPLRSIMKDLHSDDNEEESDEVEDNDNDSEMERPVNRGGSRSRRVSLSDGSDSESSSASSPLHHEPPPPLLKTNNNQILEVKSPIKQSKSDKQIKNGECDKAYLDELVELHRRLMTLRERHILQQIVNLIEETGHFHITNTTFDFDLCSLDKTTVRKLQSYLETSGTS
RanGTP-Imp inh – disruptors of Ran-importin-beta complex formation – biochemical, FRET, CFP-Ran, YFP-importin-beta, homogeneous, primary screen | cell-free CFP-Ran/YFP-importin-beta FRET ratio | inhibition, % (concentration not given with the values) | hit rate 1.1% among 300,000 | AID 2216;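 active = most replicates above 15%; inconclusive = exactly half above 15%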;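 also: 0% = DMSO wells and 100% = Ran loaded with GDP instead of GTP; wells of about 40 µL received 100 nL stock; the first replicate is given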
Calb FLC – affects C. albicans growth with fluconazole. growth inhibition, % (test concentration not listed). hit rate 0.57% among 300,000. AID 1979. C. albicans CaCi-2 (fluconazole-resistant clinical isolate) + fluconazole, Alamar Blue growth, 48 h;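 active = most replicates above 75%; inconclusive = exactly half above 75%; inactive = most below 75%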;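 also: all wells also contain fluconazole at 8 µg/ml as a sub-toxic cotreatment; 0% = median of DMSO wells and 100% = median of geldanamycin control wells; wells of about 8 µL received 7.5 nL stock; the first replicate is given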
ALR H2O2 inh – blocks human ALR sulfhydryl oxidase activity | P55789 | purified ALR, DTT oxidation, H2O2 HRP-luminol luminescence | AID 485317 | inhibition, % (concentration not given with the values) | hit rate 3.8% among 290,000;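 active = mean and each replicate at 75% or more; inconclusive = only one of the two met; inactive = neither met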;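 also: stock transfer was 7.5 nL into about 7.5 µL; 0% = neutral wells and 100% = wells with inactivated enzyme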
Target sequence (P55789 whole entry, looked up): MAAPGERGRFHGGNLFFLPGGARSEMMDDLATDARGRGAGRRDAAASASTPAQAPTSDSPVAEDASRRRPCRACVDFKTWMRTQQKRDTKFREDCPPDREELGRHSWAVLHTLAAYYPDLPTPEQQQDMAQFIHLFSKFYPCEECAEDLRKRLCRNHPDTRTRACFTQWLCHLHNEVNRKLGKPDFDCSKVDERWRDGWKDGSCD
FGF22 binding – FGF22 (human) thermal shift binding | Q9HCT0 | recombinant FGF22 thermal shift, SYPRO orange fluorescence; percent of sucrose octasulfate shift, DMSO zero | calls only at 9.99 µM | hit rate 1.5% among 340,000 | AID 651658;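 active = melting point raised past a set limit in the mean and every replicate; inconclusive = no clear call; three in four hits are not shown here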
Target sequence (Q9HCT0 whole entry, looked up): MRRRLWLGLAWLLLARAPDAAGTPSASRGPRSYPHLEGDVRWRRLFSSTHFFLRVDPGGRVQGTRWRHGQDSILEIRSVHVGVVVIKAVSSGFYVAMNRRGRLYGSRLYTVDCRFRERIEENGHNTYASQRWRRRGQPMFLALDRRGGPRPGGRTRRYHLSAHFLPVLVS
Ecoli rRNA inh OD600 – recorded beside Ecoli rRNA inh, whose call it bears; OD600 change, %; measured here: OD600 growth;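 optical density of the mix in the first replicate; 0 = DMSO median and -100 = no signal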
Ecoli rRNA inh RFP – recorded beside Ecoli rRNA inh, whose call it bears; RFP signal change, %; measured here: RFP humanized mutant strains;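 first replicate; 0 = DMSO median and -100 = no signal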
Starred values were filed as active, the others as inactive; i = inactive; ? = inconclusive; / = no result given. An excerpt, so the mix of outcomes need not match the whole.

SMILES | T cruzi repl | Beta apoptosis | Ecoli rRNA inh | Ecoli rRNA inh OD600 | Ecoli rRNA inh RFP | MLL AF4-AF9 inh | RanGTP-Imp inh | Calb FLC | ALR H2O2 inh | FGF22 binding
CCCCn1nnnc1SCC(=O)N(CC)CC | 6 | -6 | / | / | / | / | 1.9 | -8 | 3 | /
CCN(CC)c1ccc(C2C(C(=O)OCCOC)=C(C)NC3=C2C(=O)CC(C)(C)C3)cc1 (stereo not drawn) | 17 | -1 | / | / | / | / | -9.0 | -9 | 99* | /
COc1cc2cnc(-c3ccccc3)cc2cc1OC | / | 4 | -8 | -3 | -12 | -7.3 | / | / | 2 | i
COc1ccc(C(C)n2c(C)c3c(C)nnc(C)c3c2C)cc1 (stereo not drawn) | 33 | -9 | / | / | / | / | 0.1 | -3 | -16 | /
C[C@H](CO)N1C[C@H](C)[C@@H](CN(C)CC2CCCCC2)Oc2c(NS(=O)(=O)c3cccs3)cccc2C1=O | / | 0 | 0 | -3 | -0.6 | 2.2 | / | / | 3 | i
Cc1ccc2nc(/C(C#N)=C\c3ccc(OC(=O)c4cccs4)cc3)[nH]c2c1 | -22 | 3 | / | / | / | / | 4.7 | ? | -14 | /
COc1ccc(N2CCN(C(=O)c3sc4ncn(CC(=O)N5CCCCC5C)c(=O)c4c3C)CC2)cc1 (stereo not drawn) | 6 | -8 | -5 | -5 | -3.5 | 3.0 | -2.4 | 9 | 50 | i
O=C(N/N=C1\C/C(=N\NC(=O)c2ccncc2)c2ccccc21)c1ccncc1 | 21 | 6 | -18 | -14 | -0.9 | 8.7 | -2.6 | ? | -98 | i
COc1ccc(F)cc1C(=O)C1CCCN(C(=O)CSc2ccccn2)C1 (stereo not drawn) | 8 | -6 | -13 | -11 | -1.3 | 0.1 | -1.4 | 0 | 58 | i
Cc1ccc(NC(=O)Cc2csc(-c3ccccc3)n2)cc1F | -7 | -2 | -2 | 0 | 0.3 | -99 | -5.4 | -14 | -17 | i
COc1ccc(OCC(=O)Nc2ccc(C)c(S(=O)(=O)N(C)C)c2)cc1 | -12 | / | -9 | -5 | 2.0 | 0.6 | -3.8 | 28 | 9 | i
CCOC(=O)c1ccc(NCc2ccncc2)cc1 | 4 | -2 | / | / | / | / | 1.9 | 4 | -22 | /
CCN1CCN(C(=O)c2ccc3c(c2)c(C)c(C)n3Cc2ccccc2)CC1 | 3 | -13 | -14 | -23 | 0.8 | 9.5 | 8.4 | 3 | -6 | /
O=C(C1CCN(Cc2ccccc2)CC1)N1CCN(C/C=C/c2ccccc2)CC1 | -14 | 1 | / | / | / | / | 1.9 | -14 | / | /
Fc1ccc(NC(=S)NC23CN4CN(CN(C4)C2)C3)cc1 | -10 | -5 | / | / | / | / | ? | -4 | -1 | /
O=C(O)CCSCCCN1C(=O)c2cccc3cccc(c23)C1=O | 4 | -11 | -14 | -15 | -2.8 | -1.3 | 3.7 | -2 | 1 | i
CCOc1ccc(NC(=O)CCN2CCN(c3ccccc3F)CC2)cc1 | -17 | -1 | / | / | / | / | 4.2 | -2 | -4 | /
COc1ccc(/C=C/C(=O)NCc2cn(C)nc2C)cc1COc1ccc(Br)cc1 | 25 | -5 | / | / | / | / | -2.0 | 18 | 2 | /
CCCCn1c(N)c(N(CCOC)C(=O)c2ccc(C)c(S(=O)(=O)N3CCCCC3)c2)c(=O)[nH]c1=O | -1 | -7 | 4 | 6 | -1.9 | -22 | 2.7 | -7 | 10 | i
Nc1c(C(=O)C2CC2)sc2nc(-c3ccccc3)cc(C(F)(F)F)c12 | 9 | 3 | / | / | / | / | 5.0 | 17 | / | /
COc1ccc(NC(=S)N=Nc2c(O)[nH]c3ccccc23)cc1 | 48 | 22 | -47* | -8.9* | -13* | 0.4 | 0.2 | -13 | -3 | i
CCCCn1c(N)c(Sc2ccccc2[N+](=O)[O-])c(=O)[nH]c1=O | 4 | -4 | / | / | / | 2.9 | -1.7 | 28 | / | i
COc1ccc(S(=O)(=O)N2CCCC(C(=O)NCc3cccnc3)C2)cc1OC (stereo not drawn) | -17 | / | 8 | 11 | -2.9 | 0.6 | -3.5 | -1 | 0 | i
Cc1ccc(-c2c[n+](CC(=O)Nc3ccccc3)c3n2CCC3)cc1 | -1 | -5 | -22* | -5.2* | 8.2* | 3.9 | 1.5 | 1 | -9 | i
COc1cc(/C=C/C(=O)OCC(=O)Nc2ccc([N+](=O)[O-])cc2)ccc1O | -4 | -3 | -9 | 3 | -2.1 | -6.0 | 4.3 | -2 | / | i
(continued)
SMILES | T cruzi repl | Beta apoptosis | Ecoli rRNA inh | Ecoli rRNA inh OD600 | Ecoli rRNA inh RFP | MLL AF4-AF9 inh | RanGTP-Imp inh | Calb FLC | ALR H2O2 inh | FGF22 binding
COc1ccc(S(=O)(=O)N(C)C)cc1NC(=O)CSc1ncccn1 | 4 | 0 | 13 | 3 | 1.6 | -0.4 | 3.4 | -9 | 3 | i
CCOC(=O)N1CCN(C(=O)c2ccc(CNS(=O)(=O)c3ccc(NC(C)=O)cc3)cc2)CC1 | -10 | 1 | 6 | 0 | 1.2 | -1.1 | 2.0 | 5 | -2 | i
O=C(Nc1ccc(N2CCN(c3ccc(O)cc3)CC2)cc1)Oc1ccccc1 | -16 | -13 | 4 | -3 | 2.0 | 1.6 | ? | -11 | 26 | i
CC(C)OC(=O)/C(=C/c1ccc(Br)cc1)NC(=O)c1ccco1 | 0 | -6 | / | / | / | / | 1.6 | 1 | -2 | /
CCOc1ccc(CCNC(=O)COC(=O)c2ccc(C)s2)cc1OCC | -8 | 2 | 13 | 9 | -2.4 | -3.2 | 6.3 | -9 | -12 | i
CCCCn1nc2cc(C(=O)NCCc3cccs3)ccc2c1OCC | -6 | 2 | 1 | 2 | 3.5 | -2.0 | -0.5 | -4 | -3 | i
CN(CC1COc2ccccc2O1)C(=O)c1ccc(Cl)c(S(=O)(=O)N2CCCCCC2)c1 (stereo not drawn) | / | -2 | -33 | -36 | -0.6 | 2.4 | / | / | 16 | i
COc1ccc2oc(C(=O)OCC(=O)N3C(C)CCCC3C)c(C)c2c1 (stereo not drawn) | 2 | / | -21 | -22 | -1.8 | -2.1 | 0.2 | -3 | 5 | i
N#Cc1c(-c2ccccc2)nc(-c2ccccc2)nc1N1CCOCC1 | -9 | 0 | / | / | / | / | 5.5 | -3 | -7 | /
CC(=O)Nc1ccc(C(=O)N/N=C(\C)CC(=O)Nc2ccc(OCc3ccccc3)cc2)cc1 | -22 | 1 | / | / | / | / | -0.1 | -18 | 5 | /
C[C@@H]1C(NC(=O)c2ccccc2)CC2CC1C2(C)C (stereo partly drawn) | 22 | 6 | -2 | -15 | -3.8 | -3.3 | 4.1 | 15 | -11 | i
Cc1nc(NC(=O)c2ccc(F)cc2)nc2cc3c(cc12)OCO3 | 5 | / | / | / | / | / | -3.4 | -19 | -3 | /
COc1cc(NC(=S)NC2CC2)c(OC)cc1Cl | -5 | -5 | 11 | 5 | -0.2 | -0.8 | ? | 2 | / | /
O=C(CCN1CCOCC1)NC1CCCN(Cc2ccccc2F)C1 (stereo not drawn) | -2 | -1 | 14 | 8 | 0.8 | 0.4 | 2.8 | -6 | 1 | i
COc1ccccc1C(=O)Nc1cc(-c2ccc(C)cc2)no1 | 8 | -1 | -12 | -10 | 4.6 | -2.1 | -3.1 | 24 | -5 | i
Cc1noc(C)c1S(=O)(=O)N(CC(=O)NCc1ccc(Cl)cc1)c1ccc2c(c1)OCO2 | -1 | / | 3 | 5 | 6.6 | -9.6 | -0.4 | 0 | -5 | i
CCCn1c(NC(=O)c2ccc(C)cc2)nc2ccccc21 | 39 | 34 | / | / | / | / | -2.3 | 4 | 2 | /
O=C(CNC(=O)C12CC3CC(CC(C3)C1)C2)N1CCN(S(=O)(=O)c2cccs2)CC1 | -1 | -4 | / | / | / | / | 3.7 | 18 | 1 | /
COc1ccc(C2/C=C\CN(C(=O)Nc3ccccc3-c3ccccc3)CC(=O)N2Cc2ccc(F)cc2)cc1 (stereo not drawn) | 36 | 2 | / | / | / | / | ? | 15 | 4 | /
COc1ccc(N2C3=C(CC4=C2CC(C)(C)CC4=O)C(=O)CC(C)(C)C3)cc1 | 64* | -9 | 2 | 9 | 1.5 | 13 | 0.9 | -5 | 7 | i
O=C(C(c1ccccc1)c1ccccc1)N(Cc1ccco1)C1CCS(=O)(=O)C1 (stereo not drawn) | 12 | -3 | / | / | / | / | 3.1 | 7 | -2 | /
Cc1noc(C)c1C(=O)Nc1ccc(N(C)C)cc1 | 2 | 2 | 7 | 14 | 2.5 | 4.1 | 1.3 | -15 | 99* | i
CC1(C)CC(=O)C=C(c2cccc3c2oc2ccccc23)C1 | 2 | -3 | -22 | -17 | 19 | 3.6 | -0.4 | 38 | / | i
Cc1ccc(CC23CN4CCN(CC(C4)C2O)C3)c(C)c1 (stereo not drawn) | -11 | 3 | / | / | / | / | -5.3 | -13 | -3 | /
Cc1ccccc1OCC(=O)Nc1cc(Cl)ccc1Oc1ccccc1 | 23 | 8 | 18 | 17 | 1.8 | 2.2 | -3.0 | -7 | -4 | i
(continued)
SMILES | T cruzi repl | Beta apoptosis | Ecoli rRNA inh | Ecoli rRNA inh OD600 | Ecoli rRNA inh RFP | MLL AF4-AF9 inh | RanGTP-Imp inh | Calb FLC | ALR H2O2 inh | FGF22 binding
Cn1cccc1CC(=O)N/N=C/C=C/c1ccco1 | -8 | 6 | 17 | 18 | 1.0 | 3.0 | -0.7 | 6 | -57 | i
COc1cc(/C=C2\C(=N)N3N=C(CC(=O)N4CCOCC4)SC3=NC2=O)cc(OC)c1OC | -1 | -1 | 6 | 9 | -2.6 | -2.8 | 4.4 | / | 7 | i
COc1ccc(N2CC(C(=O)Nc3ccccc3N3CCCC3)CC2=O)c(OC)c1 (stereo not drawn) | -11 | 0 | 2 | 2 | -2.3 | 1.0 | 1.1 | 0 | 41 | i
COc1ccc(-c2csc(NC(=O)C3CSC4(C)CCC(=O)N34)n2)cc1 (stereo not drawn) | / | -1 | 13 | 17 | 2.1 | -3.9 | / | / | -6 | i
O=P(O)(CCc1ccncc1)CN1CCCCC1 | -10 | -4 | / | / | / | / | ? | -7 | 2 | /
NC(=O)c1c(NC(=O)CCCC(=O)O)sc2c1CCCCCC2 | -15 | 4 | / | / | / | / | 6.6 | -32 | / | /
Cc1ccc(C(=O)O/N=C(\c2ccccc2)c2cccnc2)cc1 | -8 | -8 | -9 | -3 | 13 | 1.4 | -0.4 | 13 | -5 | i
O=C(COC(=O)CNS(=O)(=O)c1ccc(Br)cc1Cl)Nc1ccc(N2CCOCC2)cc1 | -5 | -2 | 4 | -3 | 1.0 | 0.9 | -0.8 | -6 | 99* | i
O=C(Nc1ccc(F)cc1F)c1csc(-c2cccs2)n1 | -8 | -1 | 14 | 13 | 2.4 | -0.3 | 0.2 | 6 | -4 | i
Cc1ccc(C(=O)Nc2ccccc2-c2ccccc2)o1 | 0 | -10 | / | / | / | / | 4.8 | -16 | 14 | /
O=C(Nc1c(C(=O)O)[nH]c2ccc(F)cc12)c1cccc(C(F)(F)F)c1 | -10 | 6 | 3 | -5 | 9.6 | -11 | -0.4 | -5 | 28 | /

Screening data from PubChem BioAssay.
